NPR1 antag = human Npr1 receptor antagonism. P16066. HEK293 hNpr1 GloSensor cGMP, ANP-stimulated luminescence. Potency, µM (doses to about 46.3 µM), without a hit: at the highest dose activity change, negative = inhibition, usual class: inhibitors. 76,000 tested, 1.6% active. AID 1347048; active = well fitted inhibition curve with a large enough effect; inconclusive = small, poorly fitted or top-dose-only effect; inactive = no such curve, though single readings can be large or run the other way;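 also: nearly all actives have a fitted effect of over 60% in size; nearly all hits also lower the signal before the agonist is added; a reference antagonist and vehicle were the controls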
Target sequence (P16066 whole entry, looked up): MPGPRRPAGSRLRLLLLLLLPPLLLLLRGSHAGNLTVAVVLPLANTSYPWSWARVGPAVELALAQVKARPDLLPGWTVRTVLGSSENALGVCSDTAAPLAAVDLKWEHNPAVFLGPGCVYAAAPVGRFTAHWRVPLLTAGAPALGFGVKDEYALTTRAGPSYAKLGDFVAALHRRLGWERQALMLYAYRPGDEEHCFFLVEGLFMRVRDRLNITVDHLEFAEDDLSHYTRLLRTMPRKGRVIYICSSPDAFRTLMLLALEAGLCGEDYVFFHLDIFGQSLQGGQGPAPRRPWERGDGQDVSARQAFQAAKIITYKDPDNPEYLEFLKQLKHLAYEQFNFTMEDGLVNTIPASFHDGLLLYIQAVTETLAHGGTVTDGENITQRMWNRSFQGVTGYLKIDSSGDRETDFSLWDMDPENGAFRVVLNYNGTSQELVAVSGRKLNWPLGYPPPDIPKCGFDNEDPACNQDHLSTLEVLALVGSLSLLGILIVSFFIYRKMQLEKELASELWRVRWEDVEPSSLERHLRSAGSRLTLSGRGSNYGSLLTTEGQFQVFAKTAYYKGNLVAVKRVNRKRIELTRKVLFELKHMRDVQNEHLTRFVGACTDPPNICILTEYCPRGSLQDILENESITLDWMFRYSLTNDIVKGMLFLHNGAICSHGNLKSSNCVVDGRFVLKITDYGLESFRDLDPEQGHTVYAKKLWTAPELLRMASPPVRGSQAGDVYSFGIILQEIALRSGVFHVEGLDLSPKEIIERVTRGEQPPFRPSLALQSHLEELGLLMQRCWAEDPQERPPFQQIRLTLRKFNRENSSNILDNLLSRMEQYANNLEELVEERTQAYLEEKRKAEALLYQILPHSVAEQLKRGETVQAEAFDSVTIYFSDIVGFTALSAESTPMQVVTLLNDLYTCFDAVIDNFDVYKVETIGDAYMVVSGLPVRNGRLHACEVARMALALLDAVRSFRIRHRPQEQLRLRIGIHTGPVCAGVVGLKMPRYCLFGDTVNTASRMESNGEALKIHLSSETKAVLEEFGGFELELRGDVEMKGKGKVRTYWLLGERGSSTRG
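Compound pre-incubated 30 min at room temperature on GloSensor-loaded HEK293 cells stably carrying hNpr1 and the pGS-40F cGMP biosensor. Stimulation uses hNppA at 0.1 nM final; luminescence is taken at baseline and 20 min post-agonist.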
Active calls of the source: *; ? = inconclusive; [ ] = remark or other dose. % is scaled to controls: 0 for no effect and ±100 for the full control effect; potency is read from the fitted curve at half-maximal effect.

SMILES	NPR1 antag
Cn1cccc1-c1nc(-c2nnn3c2COC(c2ccc(Cl)cc2)C3)no1 (configuration not stated)	4%
O=C(C1CC(=O)N(C2CC2)C1)N1CCCN(Cc2ccccn2)CC1 (configuration not stated)	5%
OC(c1cccc(C(F)(F)F)c1)c1nc(Nc2cccnc2)n[nH]1 (configuration not stated)	-23%[70.6 µM]
Cc1cc2nc3n(c(=O)c2n1CC(=O)NC1CCCCC1)CCCC3	7%
CCc1nccc(-c2c(-c3ccccc3)ncn2CCN2CCCCC2CO)n1 (configuration not stated)	9%
CN(CCC1CCOCC1)C(=O)c1ccc(OC2CCN(C(=O)C3CC3)CC2)cc1	-8%
O=C(NCCN1CCCCC1)C1Cn2cccc2C(=O)N1Cc1ccccc1 (configuration not stated)	-2%
Cc1cccc(C(=O)N2C(C(=O)NC(C)c3ccccc3)COC23CCC(C)CC3)c1 (configuration not stated)	6%
Nc1nc(CCC(=O)N2CCC3(CCCNC3=O)C2)cs1 (configuration not stated)	0%
O=C(Nc1cc(F)cc(F)c1)N1CCC(CCNC(=O)C2(c3ccccc3)CC2)CC1	-26%
Cc1nn(-c2ccc(C(C)C)cc2)c(C)c1[C@@H]1C=C[C@@H](NC(=O)NC2CCCCC2)C1	?
CC(=O)NC[C@H]1Cn2ccnc2CO1	-1%[122 µM]
COc1ccc(CCC(=O)N2CCN(C(=O)c3nnn4c3COC(c3ccc(C)cc3)C4)CC2)cc1 (configuration not stated)	-30%
Cc1cc(C(=O)N2CCC(C3CCN(S(C)(=O)=O)CC3)C2)nn1C (configuration not stated)	10%
Cc1cnc(C(=O)NC2C[C@H]3CC[C@@H](C2)N3C(=O)c2cc(F)cc(F)c2)cn1 (some centres not stated)	7%
CN1CCC(NC[C@H]2O[C@H](Cc3cc(-c4ccc(F)cc4)on3)CC[C@@H]2O)CC1	?
COCCN1C(=O)CSC12CCN(C(=O)NCc1ccccc1)CC2	-1%
CCOC(=O)C1(Cc2ccccc2C)CCCN(C(=O)c2cc[n+]([O-])cc2)C1 (configuration not stated)	14%
O=C(O)[C@H]1C[C@H](C(=O)N2CCCC2)CN(Cc2ccncc2)C1	-1%
CC1(C)[C@H](Cc2cc(CN3CCCCC3)on2)C[C@@H]1NC(=O)c1cccc(F)c1	-18%[70.6 µM]
COCCn1cnc2ccc(-c3ccccc3C)nc2c1=O	0%[70.6 µM]
COc1ccc([C@H]2C[C@@H](O)[C@@H](O)[C@@H]2NCc2cnc[nH]2)cc1	-5%[70.6 µM]
O=C(Cn1nc2c(cc1=O)CCCC2)Nc1nc2c(s1)CCCCC2	0%
CCNC(=O)N1CC(C(=O)NC(C)c2ccccc2)CC(c2ccc(F)c(C)c2)C1 (configuration not stated)	-11%
O=C1Cc2c(-c3ccc(CO)cc3)n[nH]c2CN1CC1CCOCC1	0%[70.6 µM]

More entries:
SMILES	NPR1 antag
CCn1cc(CN(C)C(=O)CCC[C@@H]2[C@H]3CCCN4CCC[C@@H](CN2C)[C@@H]34)c(C)n1	-4%
Cc1ccc(-c2cc(N3CCCN(C(=O)Cc4ccccc4)CC3)n[nH]2)cc1C	-13%
CCc1noc(-c2cccn3c(CNC(=O)c4ccc5ccccc5n4)nnc23)n1	-6%
CCOC(=O)C1CCCN(C(=O)C2CC(c3ccccc3)CN(C(=O)c3cccc(F)c3)C2)C1 (configuration not stated)	3%
COc1ccc(CNC(=O)C[C@@H]2C[C@H]3O[C@H](CNC4CCNCC4)[C@@H](O)[C@H]3O2)cc1	1%[70.6 µM]
COc1ccc2c(c1)c(CN1CCOCCNC(=O)CC1)cn2C(C)C	-7%
CN(Cc1cn(C)c2ccccc12)C1CCc2nn(CC3CC3)c(=O)n2CC1 (configuration not stated)	-3%
COC(=O)c1ccc2c(c1)nc1n2[C@@H](CNC(=O)CC(C)(C)C)COC1	-2%[70.6 µM]
O=C(NC1C[C@H]2CC[C@@H](C1)N2C(=O)C1(c2ccccc2)CC1)c1ccc(F)cc1 (some centres not stated)	0%
CCc1noc([C@@H]2CC(F)(F)CN2C(=O)Cc2ccccc2F)n1	-3%
CC[C@H]1CN(C(=O)c2ccc(F)cc2)CC[C@H]1CC(=O)O	-3%[70.6 µM]
COc1ccccc1CNC(=O)C1CN(Cc2ccccc2)C(=O)N1 (configuration not stated)	10%
Cc1noc(-c2cn(C3CCCN(C(=O)c4cccc(F)c4)C3)nn2)n1 (configuration not stated)	-3%
COc1ccccc1CCC(=O)N1CCCC2(C1)Nc1cccnc1NC2=NC1CCCC1 (configuration not stated)	-2%
O=C1N(C2CCN(S(=O)(=O)c3ccccc3)CC2)C(c2ccncc2)C12CCCCC2 (configuration not stated)	0%
COc1ccc(C(C)NC(=O)Cn2c(C)cc3nc4n(c(=O)c32)CCCCC4)cc1 (configuration not stated)	-2%
Cc1nn(CC(=O)NCC2CCCO2)c(=O)c2nc(C(C)C)sc12 (configuration not stated)	4%
CN(C)C[C@@H]1CN(S(C)(=O)=O)C[C@H]1NC(=O)c1ccc(F)c(F)c1	3%
Cc1cc(Cn2cc3c4c(cccc42)[C@H](CC(C)C)N[C@H](C(=O)NC2CCCC2)C3)no1	-1%[70.6 µM]
COc1ccc(CC(=O)N2CC[C@H]3CC(=O)N(Cc4ccc5c(c4)OCO5)CC[C@H]3C2)cc1	-4%
CCn1ccnc1C1CCCN(C(=O)c2n[nH]c3c2CN(C)CC3)C1 (configuration not stated)	-3%
Cc1ccc(NC(=O)Cn2c(-c3ccc(F)cc3)nc(C)c(CCO)c2=O)c(C)c1	7%
COCCn1c(=O)n([C@H]2CCCN(C(=O)c3cc(F)ccc3F)C2)c2ncccc21	1%
O=C(NCCC1CCN(C(=O)Nc2cc(F)ccc2F)CC1)c1cnccn1	1%
CCN(CCOc1ccc(C)cc1)C(=O)c1c(O)cccc1O	-21%

Additional compounds follow:
SMILES	NPR1 antag
C=CCc1ccccc1OCCN(C)Cc1cc2ccc(F)cc2[nH]c1=O	?
CCC1(N2CCN(S(=O)(=O)c3cc(F)ccc3C)CC2)CCN(S(C)(=O)=O)C1 (configuration not stated)	0%
COc1ccc(NC(=O)Nc2ccc(C)n(CC(=O)NCC(C)C)c2=O)cc1	-15%
OC1(c2csc(CN3CCc4ccccc4C3)n2)CCN(C2CCOCC2)CC1	6%[70.6 µM]
CNC(=O)[C@@H](c1ccccc1OC)N1CCC[C@H]1C(=O)NCC1CC1	8%[70.6 µM]
O=C(C1CCN(c2cnn(Cc3ccccc3)c(=O)c2)C1)N1CCCC1 (configuration not stated)	2%
CCCN(CC1CCOC1)C(=O)Nc1cccc(SC)c1 (configuration not stated)	6%
O=C(c1ccc(F)c(Cl)c1)N1CCC2(CC1)CN(C1CCC1)CC2CO (configuration not stated)	-12%
CNC(=O)[C@H]1C[C@H](Oc2ccccc2)CN1C(=O)c1cccc(C)c1	0%
COCCC(=O)NC1CCN(c2cnn(CC3CC3)c(=O)c2)CC1	-2%
CCNC(=O)N1CCCC1c1noc(CCC(=O)NCc2cccc(C(F)(F)F)c2)n1 (configuration not stated)	-2%
Cc1noc(-c2cccc(OC3CN(C(=O)c4cccc5[nH]ccc45)C3)c2)n1	-10%
O=C(Cn1nc2c(cc1=O)CCCCC2)N1CC=C(c2c[nH]c3ccccc23)CC1	?
CN(C)c1cc(N2CCCC(NC(=O)Cc3ccsc3)C2)ncn1 (configuration not stated)	5%
COC[C@H]1CCCN1Cc1nc(C2(O)CCN(Cc3ccccc3O)CC2)cs1	3%[70.6 µM]
C=CCNC(=O)C1N(C(C)C)C(=O)C12CCCC2 (configuration not stated)	1%
CC1Oc2ccc(NC(=O)c3cccs3)cc2CN(Cc2ccccc2)C1=O (configuration not stated)	-13%
CC(C)[C@]1(O)CN(S(=O)(=O)c2ccc3c(c2)CCC(=O)N3)C[C@H]1C	-6%
Fc1ccccc1-c1nnc([C@H]2CCN(Cc3ccccc3)C2)o1	1%[70.6 µM]
COc1ccc(NC(=O)[C@@H]2C[C@@H](c3ccc(F)cc3)N(CCOc3ccccc3)C2)cn1	?
CC(C)NC(=O)C[C@@H]1C[C@H]2O[C@H](CNC3CCCCC3)[C@@H](O)[C@H]2O1	5%[70.6 µM]
O=C(OCc1ccccc1)N1CCCC2(C1)C(=NC1CCCC1)NC(=O)N2c1cc(F)cc(F)c1 (configuration not stated)	12%
O=C(O)c1cccc(C2CCCN(C(=O)c3c(F)cccc3Cl)C2)c1 (configuration not stated)	7%
Cc1nc2cccnc2n1CC1CCCN(S(=O)(=O)Cc2ccc(Cl)cc2)C1 (configuration not stated)	?
CC(=O)NC[C@H]1OC[C@@H](NC2CCCC2)[C@@H]1O	6%[70.6 µM]

Further records.
SMILES	NPR1 antag
CN(C)c1ccc(NC(=O)Cn2nc3n(c2=O)CCCCC3)cc1	-10%
CC(C)C[C@@H](NC(=O)C1=C[C@@H](NC(=O)c2ccccc2Br)[C@@H](O)[C@H](O)C1)C(N)=O	12%
CCc1cn[nH]c1C1CCCN(C(=O)c2cnn(-c3ccccc3OC)c2)C1 (configuration not stated)	-6%
Cc1cc(NC(=O)c2ccc3c(c2)N(C)C2CCCCN2C3=O)ccc1Cl (configuration not stated)	-1%
Cc1cccc(C)c1NC(=O)N(C)CC1CCOC1 (configuration not stated)	1%
O=C(Nc1ccc2c(c1)CCC2)c1nnn2c1COC(c1ccc(F)cc1)C2 (configuration not stated)	-4%
O=C1NC(C(=O)NCc2ccco2)Cn2cccc21 (configuration not stated)	-2%
CC(C)c1nnc(C2CN(C(=O)c3ccc(F)cc3)CC23CCOCC3)o1 (configuration not stated)	3%
Cc1cccc(N2CCN(c3nccc(-c4ccccn4)n3)CC2)n1	0%
O=C(NCc1ccccc1)c1nc2c(o1)CCN(Cc1ccc(F)cc1)CC2	?
Cc1ccc(C#N)c(NCc2cccnc2Oc2cccc(C(F)(F)F)c2)n1	1%
CCc1nc(-c2c3n(c(=O)n(CC(=O)Nc4cccc(C#N)c4)c2=O)CCCCC3)no1	-1%
COCC1CN(C(=O)NCc2ccc(OC)cc2)CC12CCNCC2 (configuration not stated)	5%
O=C(c1ccccc1)N1CC[C@H](c2nc3ccc(F)cc3[nH]2)C1	2%[70.6 µM]
COc1cccc(C(=O)NC2CCCN(c3cc(-c4ccccc4)[nH]n3)C2)c1OC (configuration not stated)	-1%
CCCCS(=O)(=O)Nc1ccc([C@H]2OCC(=O)N(Cc3ccc(F)cc3)[C@@H]2CO)cc1	3%
O=C([C@@H]1C[C@H](Oc2cccnc2)CN1C(=O)NC1CCCCC1)N1CCOCC1	-1%
COc1ccc(Nc2nccc3c(=O)cc(-c4ccccn4)oc23)cc1OC	-14%[70.6 µM]
O=C(Cn1ccn2nc(-c3ccccc3)c(CO)c2c1=O)Nc1ccc2c(c1)OCO2	0%
C1CCC(c2nc(CCOCC3CCOCC3)no2)NC1 (configuration not stated)	4%
CN1CCC(Nc2nccc3c(=O)cc(N(C)c4ccccc4)oc23)CC1	-3%[70.6 µM]
O=C(c1cccs1)C1CCCN(C(=O)c2ccc(N3CCCC3=O)cc2)C1 (configuration not stated)	-1%
COC1CCC12CCN(C(=O)c1cccs1)CC2 (configuration not stated)	-11%
O=C(O)C[C@@H]1CCN(C(=O)c2ccc(C(F)(F)F)cc2)C[C@@H]1CCN1CCN(c2ccc(F)cc2)CC1	4%
CC(C)(C)C(=O)N1CC[C@@H](CC(=O)O)[C@@H](CCN2CCC[C@H]2C(N)=O)C1	-1%[70.6 µM]

Three successive entries from above, for reference:
SMILES	NPR1 antag
COc1ccccc1CCC(=O)N1CCCC2(C1)Nc1cccnc1NC2=NC1CCCC1 (configuration not stated)	-2%
O=C1N(C2CCN(S(=O)(=O)c3ccccc3)CC2)C(c2ccncc2)C12CCCCC2 (configuration not stated)	0%
COc1ccc(C(C)NC(=O)Cn2c(C)cc3nc4n(c(=O)c32)CCCCC4)cc1 (configuration not stated)	-2%

Given as a markdown table: part of the list above
| structure | NPR1 antag |
| --- | --- |
| O=C1NC(C(=O)NCc2ccco2)Cn2cccc21 (configuration not stated) | -2% |
| CC(C)c1nnc(C2CN(C(=O)c3ccc(F)cc3)CC23CCOCC3)o1 (configuration not stated) | 3% |
| Cc1cccc(N2CCN(c3nccc(-c4ccccn4)n3)CC2)n1 | 0% |
| O=C(NCc1ccccc1)c1nc2c(o1)CCN(Cc1ccc(F)cc1)CC2 | ? |
| Cc1ccc(C#N)c(NCc2cccnc2Oc2cccc(C(F)(F)F)c2)n1 | 1% |
| CCc1nc(-c2c3n(c(=O)n(CC(=O)Nc4cccc(C#N)c4)c2=O)CCCCC3)no1 | -1% |

Other results
SMILES	NPR1 antag
COc1ccc(-c2cc(N3CCCC(NC(=O)c4ccc(C)nc4)C3)n[nH]2)cc1 (configuration not stated)	-24%
OCC1(Cc2ccc(F)cc2)CCCN(c2nc3ccccc3s2)C1 (configuration not stated)	?
COc1ccc(C2(C(=O)N3CCC[C@H]3c3nc(-c4ccccc4Cl)no3)CC2)cc1	10µM*
O=C(O)Cn1ccc2cc(OCC3CCN(C(=O)OC4CCCC4)CC3)cnc21	-2%[70.6 µM]
Cc1noc(C)c1S(=O)(=O)N1CCCC(CO)CCNC(=O)CC1 (configuration not stated)	-3%
O=C(N1CCC2(CC1)[C@H](O)C[C@@H]2OCCO)C1(c2ccccc2)CCCC1	0%

Compound activity (PubChem BioAssay)

The list is partial; rates above refer to the full screens.
